OX1R FRET antag: antagonists of human orexin 1 receptor (OX1R) | inhibition, % at 6.6 µM | O43613 | 330,000 compounds, 1.8% hits | OX1R-expressing cells, FRET antagonist read-out; in the data active = inhibition mostly above about 38%, no sharp cut-off; inactive = mostly below about 40%;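 also: 0% = agonist challenge alone and 100% = reference antagonist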
Target sequence (O43613 whole entry, looked up): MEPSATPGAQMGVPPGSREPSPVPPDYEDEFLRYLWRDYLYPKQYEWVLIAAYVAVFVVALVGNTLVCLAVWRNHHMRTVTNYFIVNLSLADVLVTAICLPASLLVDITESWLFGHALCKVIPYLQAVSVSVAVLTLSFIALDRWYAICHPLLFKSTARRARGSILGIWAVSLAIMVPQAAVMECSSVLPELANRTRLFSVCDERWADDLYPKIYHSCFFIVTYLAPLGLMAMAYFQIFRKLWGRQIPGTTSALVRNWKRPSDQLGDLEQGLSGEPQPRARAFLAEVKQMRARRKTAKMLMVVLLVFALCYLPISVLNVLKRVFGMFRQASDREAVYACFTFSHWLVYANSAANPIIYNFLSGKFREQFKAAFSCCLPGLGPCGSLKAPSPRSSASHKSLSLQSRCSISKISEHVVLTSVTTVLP
An asterisk follows results filed as active.

SMILES | OX1R FRET antag
C#CCNC(=O)C1=C[C@@H](c2ccc3c(c2)OCO3)C[C@@H](OCCCCO)O1 | 19
COc1ccc(Cl)cc1N1C(=N)SCC1=O | 10
COc1ccc(NC(=O)CCNC(=O)Cn2ccc3ccccc3c2=O)c(OC)c1 | 15
COc1ccc(NC(=O)c2oc3ccccc3c2NC(=O)c2ccc3c(c2)OCO3)cc1 | 10
Cc1nn2c(-c3ccccn3)ccnc2c1Br | 26
CSc1ccccc1NC(=O)CN(C)S(=O)(=O)c1ccc(F)cc1 | 16
CCC1(C)Cc2ccccc2/C(=C/C(=O)N2CCCCC2)N1 (configuration not stated) | 10
Cc1ccccc1-n1c(C)cc(/C=N/NC(=O)c2ccc(CN3CCOCC3)cc2)c1C | 9
O=C(NNC1=NS(=O)(=O)c2ccccc21)C1CC(=O)N(c2ccccc2)C1 (configuration not stated) | 34
O=C(NNC(=O)c1sc2cccc(Cl)c2c1Cl)Nc1ccccc1 | 8
COc1ccc(/C=N/n2cnc3c([nH]c4ccccc43)c2=O)cc1CO | 18
COc1ccc(NC(=O)CSc2nnc(-c3cc(C)[nH]n3)n2N)cc1OC | -3
O=C(Nc1ccccc1Cl)c1cnccn1 | 5
Cc1c(C#N)c(O)n(CCO)c(=O)c1N=Nc1ccc2c(c1)COC2=O | 32
CC1CCCN(Cc2nc3c(c(=O)n(C)c(=O)n3C)n2CCCc2ccccc2)C1 (configuration not stated) | 18
CCOc1ccc(C(=O)NCC(=O)OCC(=O)Nc2ccccc2OCC)cc1 | 27
O=C(CN(C(=O)CNS(=O)(=O)c1ccccc1)C1CCCC1)NCC1CCCO1 (configuration not stated) | -4
COc1ccc(CN(C(=O)c2cc(=O)c3cc(C)cc(C)c3o2)C2CCS(=O)(=O)C2)cc1 (configuration not stated) | 6
O=C(Nc1ccc(F)cc1)C1CCN(S(=O)(=O)c2cccc3nonc23)CC1 | 15
CCOc1ccc(Nc2nc(-c3cccnc3)cs2)cc1 | 14
COc1cc(CO)c(Br)cc1OCC(=O)Nc1ccccc1C | 12
N#CCCN(C(=O)COC(=O)c1ccc(S(=O)(=O)Nc2ccccc2)cc1)c1ccccc1 | 31
CC1(C)CC(=O)C=C(Nc2cccc(O)c2)C1 | -1
O=C(CSc1n[nH]c(-c2cccs2)n1)NCc1cccs1 | 17
CCNc1nc(N)nc(-c2cc(Cl)ccc2OC)n1 | 21
CC(C)c1cc(C(F)(F)F)n2nc(C(=O)Nc3ccc4c(c3)OCO4)cc2n1 | 20
O=C1c2ccccc2C(=O)N1CCc1csc(-c2ccccc2)n1 | 22
CC(=O)c1ccc(OCCCC(=O)Nc2ccc(C)c(S(=O)(=O)N(C)C)c2)cc1 | 17
O=C(O)c1ccc(N/N=C/c2ccc(-c3ccc(Br)cc3)o2)cc1 | 20
OCCCn1c(C2CCCN2c2nc(-c3ccc(Cl)cc3)cs2)nc2cc(Cl)c(N3CCCCC3)cc21 (configuration not stated) | 16
CN1CCN(C(=O)c2ccc3c(=O)n(-c4ccc(F)cc4)c(=S)[nH]c3c2)CC1 | 16
COc1ccc(C(=O)C2CCCN(Cc3cn[nH]c3-c3ccc(F)cc3)C2)cc1OC (configuration not stated) | 18
CC(=O)c1ccc(NC(=O)CSc2nc3nc(C)cc(C)n3n2)cc1 | 1
CCC(=O)Oc1ccc(-c2cnc3ccccc3n2)cc1 | 16
COCCn1c(C)cc(C(=O)CSc2nc3ccccc3c(=O)n2Cc2ccco2)c1C | 7
CCOC(=O)c1cnc(SC2CCc3ccccc3C2=O)nc1N (configuration not stated) | 27
Cc1ccsc1C(=O)N[C@@H](C)c1nnc2ccccn12 | 6
COc1cc(NC(=O)COc2ccccc2[N+](=O)[O-])ccc1NC(=O)c1ccco1 | 16
O=C(Nc1sc2c(c1C(=O)O)CCC2)c1ccco1 | 30
CCC(C)[C@H](NC(=O)[C@@H]1CSC2c3ccccc3C(=O)N21)C(=O)NC1CCCC1 (some centres not stated) | 10
CC(C)c1nc2ccc(NC(=O)C34CC5CC(CC(C5)C3)C4)cc2[nH]1 | 17
CCOc1ccc(N2C(=O)/C(=C\c3ccc(OC)c(O)c3)S(=O)(=O)C2c2cccc([N+](=O)[O-])c2)cc1 (configuration not stated) | 16
Clc1ccccc1-c1nn2c(COc3ccccc3)nnc2s1 | 11
CCOc1ccc(/C=C2/Sc3ccc(C(=O)N4CCN(C(=O)c5ccco5)CC4)cc3N(C)C2=O)cc1OC | 7
Cc1ccccc1C1c2[nH]c3ccccc3c2CCN1CCCn1cccn1 (configuration not stated) | 11
CC(=O)Oc1ccc2occ(-c3ccccc3)c2c1 | 2
O=C(NC1CCCCC1)N1CCCC(c2nc(-c3cccs3)no2)C1 (configuration not stated) | 25
CCSc1nc(N2CCOCC2)c2ccccc2n1 | -4

Some values from the entries so far:
Result of CCNc1nc(N)nc(-c2cc(Cl)ccc2OC)n1 under OX1R FRET antag: 21
Result of CCOC(=O)c1cnc(SC2CCc3ccccc3C2=O)nc1N (configuration not stated) under OX1R FRET antag: 27

Back to the main list; the four compounds before the break are reprinted first.
SMILES | OX1R FRET antag
Cc1ccccc1C1c2[nH]c3ccccc3c2CCN1CCCn1cccn1 (configuration not stated) | 11
CC(=O)Oc1ccc2occ(-c3ccccc3)c2c1 | 2
O=C(NC1CCCCC1)N1CCCC(c2nc(-c3cccs3)no2)C1 (configuration not stated) | 25
CCSc1nc(N2CCOCC2)c2ccccc2n1 | -4
COc1ccc(CC(=O)NCCS(=O)(=O)N2CCN(c3ccccc3OC)CC2)cc1 | 10
O=C(CSc1nnc(-c2cccnc2)n1Cc1ccco1)c1ccc(Cl)cc1 | 21
O=S(=O)(Nc1ccc(N2CCCCC2)cc1)c1ccc(F)cc1F | 7
CCN(Cc1ccncc1)Cc1cn[nH]c1-c1ccc(OC)cc1F | 14
Cc1ccc(S(=O)(=O)N2CCOCC2)cc1NC(=O)CSc1nccn1C | 14
Cc1c(CCC(=O)O)c(=O)n2c([nH]c3ccccc32)c1C#N | 10
Cc1cccc(C)c1NC(=O)CCCSc1nnc(-c2ccc(Cl)cc2)n1-c1ccccc1 | 12
CCSc1ccc(/C(N)=N/OC(=O)c2cccs2)cn1 | 1
Cc1ccc(Cn2c(C)nc3ccc([N+](=O)[O-])cc3c2=O)cc1 | 16
O=S(=O)(Nc1ccc(N2CCOCC2)cc1)c1ccc(Cl)s1 | 1
Cc1cccc(-n2c(=O)c3c(n4cnnc24)-c2ccccc2CC32CCCCC2)c1 | -1
Cc1ccc(CCSc2ccc(C(C)C)cc2)cn1 | 16

An excerpt of these results, with tabs.
molecule	OX1R FRET antag
COc1ccc(CC(=O)NCCS(=O)(=O)N2CCN(c3ccccc3OC)CC2)cc1	10
O=C(CSc1nnc(-c2cccnc2)n1Cc1ccco1)c1ccc(Cl)cc1	21
O=S(=O)(Nc1ccc(N2CCCCC2)cc1)c1ccc(F)cc1F	7
CCN(Cc1ccncc1)Cc1cn[nH]c1-c1ccc(OC)cc1F	14
Cc1ccc(S(=O)(=O)N2CCOCC2)cc1NC(=O)CSc1nccn1C	14
Cc1c(CCC(=O)O)c(=O)n2c([nH]c3ccccc32)c1C#N	10
Cc1cccc(C)c1NC(=O)CCCSc1nnc(-c2ccc(Cl)cc2)n1-c1ccccc1	12

Later entries.
SMILES | OX1R FRET antag
CCn1c2ccccc2c2nnc(SCC(=O)Nc3cc(C)on3)nc21 | 11
CCc1c(C)[nH]c2ccc(C)cc2c1=O | -2
CCC(C(=O)Nc1nc(C)c(C(=O)OC)s1)c1ccccc1 (configuration not stated) | 31
O=C(Nc1ccccc1Br)c1cc(=O)c2ccccc2o1 | 35
NC(=O)c1ccccc1OCC(=O)N1CCCc2ccccc21 | 3
CC(=O)c1cc2c(cc1NC(=O)C1CCC1)OCO2 | 3
CC(CN(C)C)CN1c2ccccc2CCc2ccccc21 (configuration not stated) | 8
Cc1cc(C)cc(NC(=S)NCCN(C2CCCCC2)C2CCCC2)c1 | 21
O=C(O)CCCc1nc(-c2ccccc2)no1 | 16
Cc1ccc2[nH]c(=O)c(CN(Cc3ccccc3)C(=S)NCCCN(C)C)cc2c1 | 22
COC(=O)C1C(=O)C(C(=O)/C=C/c2ccccc2)C(=O)CC1(C)C (configuration not stated) | 8
Cc1cc(NC(=O)COC(=O)CNS(=O)(=O)c2ccc(C)c(C)c2)no1 | 13
Cc1ccc(NC(=O)NNC(=O)COc2ccc3ccccc3c2)cc1 | 13
CCOC(=O)CCCCC(=O)c1[nH]c(=O)[nH]c1Cn1cnc2ccccc21 | 4
CC(=O)NCCOc1cccc(OCCNC(C)=O)c1 | 8
COc1cc(NC(=O)C2CCN(S(=O)(=O)c3cnc[nH]3)CC2)cc(OC)c1OC | 15
O=C(O)C1=C[C@@H](c2ccc3c(c2)OCO3)C[C@@H](OCc2ccc(CO)cc2)O1 | 8
C=CCn1c(CNC(=O)c2cccs2)nnc1SCc1ccc(Cl)cc1Cl | 18
CS(=O)(=O)n1nc(OC(=O)c2cccc3ccccc23)cc1N | 12
Cc1ccc(-n2c(SCC(=O)Nc3ccc4c5c(cccc35)CC4)nc(O)c(C)c2=O)cc1 | 7
CCOC(=O)N1CCN(c2c(N3CCN(c4cc(C)ccc4C)CC3)c(=O)c2=O)CC1 | 3
CCCCSc1nc2sc3c(c2c(=O)[nH]1)CCC3 | 7
CCOC(=O)N1CCC(N(CCN(C)C)C(=S)Nc2cccc(OC)c2)CC1 | 10
CCCOC(=O)c1ccc(NC(=O)Oc2ccccc2)cc1 | 1
COc1ccc(-c2ccc3oc(-c4ccc(OC)cc4)c(C#CC4(O)CCCCC4)c3c2)cc1 | 16
O=C(CCSc1ccc(Cl)cc1)N1CCCCCC1 | 14
S=C(c1ccc(Br)cc1)N1CCN(Cc2ccccc2)CC1 | 0
OCCN(/C=N/c1nc(-c2ccc(Br)cc2)cs1)CCO | 4
Cc1cc(C)n2nc3nc4c(cc3c2n1)CCCC4 | 15
COc1ccccc1C(=O)NCCC(=O)N(C)CC(=O)Nc1ccccc1Br | 23
CS(=O)(=O)N1CCN(c2ccc([N+](=O)[O-])c(NCc3ccccc3)c2)CC1 | 26
COc1ccc(-c2n[nH]c3c2C(c2ccc(OC)c(OC)c2)N(c2ccccc2)C3=O)cc1 (configuration not stated) | 11
COc1ccc(CC(=O)Nc2cc(=O)n(C)c(=O)n2C)cc1 | 7
Cc1cccc(NC(=O)Cn2cnc3c(oc4nc5c(cc43)COC(C)(C)C5)c2=O)c1 | 12
O=C(CNC(=S)N(Cc1ccc(F)cc1)C1CCCCC1)NCCN1CCOCC1 | 24
COC(=O)[C@@]12CCCCN1[C@H](c1ccc(SC3CCCCC3)c(OC)c1)[C@@H]1C(=O)N(C)C(=O)[C@@H]12 | 2
COc1ccc(OC)c(N(CC(=O)O)S(=O)(=O)c2ccc(OC)c(OC)c2)c1 | 21
O=c1c2ccccc2cnn1Cc1n[nH]c(=S)n1-c1ccc(F)cc1 | 1
Cc1cc(S(=O)(=O)NC2CC(C)(C)NC(C)(C)C2)c(Cl)cc1Cl | 7
CS(=O)(=O)ON=C1CCN(S(=O)(=O)c2ccccc2)CC1 | 12
Cc1nn(-c2ccc(F)cc2)c(Cl)c1/C=C/C(=O)OCC(=O)Nc1ccc(F)cc1F | 7
Cc1nc(CCN2C(=O)c3ccccc3C2=O)n[nH]1 | 31
COc1ccc(N2CCN(CC(=O)N3c4ccccc4CC3C)CC2)cc1 (configuration not stated) | 10
Cc1nc(N2CCOCC2)nc(N2CCC(C)CC2)c1[N+](=O)[O-] | 8
CCOC(=O)N1CCC2(CC1)C(C#N)=C(N)Oc1n[nH]c(CSc3ccc(C)cc3)c12 | 15
CC1CC(C)(C)NC(=S)N1CCC(=O)NCCc1ccc(Cl)cc1 (configuration not stated) | 11
CC(C)c1ccc(N(CC(=O)N2CCOCC2)S(C)(=O)=O)cc1 | 12
COc1ccc(Cc2nnc(NC(=O)Cn3cnc4c3c(=O)n(C)c(=O)n4C)s2)cc1OC | 10
CCNC(=O)c1cc2ccccc2o1 | 15
O=C(/C=C/c1ccccc1)Nc1ccc(S(=O)(=O)N2CCOCC2)cc1 | 16
COc1ccc(Cl)cc1NC(=O)C(C)Sc1n[nH]c(N)n1 (configuration not stated) | 12
COc1ccc(S(=O)(=O)Nc2nncs2)cc1 | 8
O=C(NCc1ccccc1)C1C2C=CC3(CN(Cc4cccnc4)C(=O)C13)O2 (configuration not stated) | 14
Cc1ccnc(NC(=O)c2ccc(Cl)c(NC(=O)C(C)Oc3ccccc3)c2)c1 (configuration not stated) | 37
COc1cccc(C(=O)N(C)CC2CCN(CCc3cccc(C(F)(F)F)c3)CC2)c1 | 17
COc1cccc(-c2ccc(SCC(=O)N3CCc4ccccc43)nn2)c1 | 20
CC1(C)NC(=O)N(CC(O)CN(Cc2ccccc2)Cc2ccccc2)C1=O (configuration not stated) | 5
O=C(CN1CCN(c2ccc(F)cc2)CC1)NCc1cccs1 | 8
Cc1ccc2nc(-c3ccccc3)cn2c1 | 4
O=C(Nc1cccnc1)Nc1ccccc1Cl | 13

Remaining list, next part
SMILES | OX1R FRET antag
CCCCn1c(N)c(N(CCOC)C(=O)CSc2n[nH]c(-c3ccc(OC)cc3)n2)c(=O)[nH]c1=O | 1
CC(C)Cn1c(N)c(C(=O)COC(=O)c2cc(-c3ccco3)nc3ccccc23)c(=O)n(C)c1=O | 36
COc1ccc([N+](=O)[O-])cc1N(CC(=O)NC1CCCC1)S(C)(=O)=O | 6
CCOC(=O)C1=C(C)NC(=O)NC1c1cc(C)sc1C (configuration not stated) | 24
CCOc1ccc(C2c3[nH]c4ccccc4c3CCN2Cc2cccn2-c2ncccn2)cc1 (configuration not stated) | 14
O=C(O)C1CC=CCC1C(=O)Nc1ccccc1C(=O)N1CCN(c2ccc(F)cc2)CC1 (configuration not stated) | 8
CN(C)c1nc(Nc2ccccc2)nc(Oc2ccc(=O)[nH]n2)n1 | 16
Cc1cc(/C=N/NS(=O)(=O)c2ccc(F)c(Cl)c2)no1 | 8
COc1ccccc1-c1nc(C#N)c(N2CCN(c3ccccc3)CC2)o1 | 24
O=C(CSc1ncnc2c1cnn2-c1ccccc1Cl)N1CCN(C(=O)c2ccco2)CC1 | 22
COc1ccc(CCC(=O)N2CC(C)OC(C)C2)cc1 (configuration not stated) | 5
O=C(Nc1ccc(-n2cc(Cl)cn2)cc1)c1ccncc1 | 7
CCOC(=O)CSc1nsc(SCC(=O)OCC)c1C#N | 25
O=C1OCC(CO)(CO)N=C1NNc1cc(Cl)ccc1Cl | 5

Compound activity deposited in PubChem BioAssay by The Scripps Research Institute Molecular Screening Center.

The list is partial, and most or all hits are left out here.
